# KCNQ2 inh: KCNQ2 potassium channel inhibitors, primary screen, cell-based, CHO-K1, FluxOR thallium flux, B-score (AID 2156). O88943. 20 min; active compounds read low; only compounds with negative scores are shown here; some inactives read as strong as hits. B-score at 10 µM. 1.1% of 310,000 active;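 active means fluorescence ratio B-score at most minus 3 library SDs, with starting brightness B-score within 2 library SDs, cut at about -5.5 in these data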
# Target sequence (O88943 whole entry, looked up): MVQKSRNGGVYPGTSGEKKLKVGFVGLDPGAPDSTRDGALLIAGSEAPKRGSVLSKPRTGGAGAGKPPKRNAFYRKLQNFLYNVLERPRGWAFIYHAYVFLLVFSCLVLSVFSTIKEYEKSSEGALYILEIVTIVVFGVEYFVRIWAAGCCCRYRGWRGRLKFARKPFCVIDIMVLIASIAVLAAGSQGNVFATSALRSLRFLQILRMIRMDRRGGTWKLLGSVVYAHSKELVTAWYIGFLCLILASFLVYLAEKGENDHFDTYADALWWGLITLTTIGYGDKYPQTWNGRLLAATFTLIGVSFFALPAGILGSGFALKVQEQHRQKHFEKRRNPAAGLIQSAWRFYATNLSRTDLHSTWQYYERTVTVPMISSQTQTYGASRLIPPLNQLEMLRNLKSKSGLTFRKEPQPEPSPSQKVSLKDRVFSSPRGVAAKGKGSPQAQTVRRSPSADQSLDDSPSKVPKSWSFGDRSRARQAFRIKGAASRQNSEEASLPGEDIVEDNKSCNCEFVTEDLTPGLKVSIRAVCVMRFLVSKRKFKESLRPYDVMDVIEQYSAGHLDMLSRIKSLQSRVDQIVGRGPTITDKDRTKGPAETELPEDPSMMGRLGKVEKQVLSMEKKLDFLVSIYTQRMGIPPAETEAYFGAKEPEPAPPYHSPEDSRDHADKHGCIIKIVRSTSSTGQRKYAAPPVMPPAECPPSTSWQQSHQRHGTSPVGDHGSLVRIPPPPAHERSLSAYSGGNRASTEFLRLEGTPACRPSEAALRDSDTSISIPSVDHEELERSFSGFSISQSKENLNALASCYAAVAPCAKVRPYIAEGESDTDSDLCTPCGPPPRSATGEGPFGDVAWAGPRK
# KCNQ2 inh baseline: further read-out of KCNQ2 inh, marked with its call; B-score; measured here: initial fluorescence intensity artifact check;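 brightness before thallium and not channel activity; 0 = typical well and far values either way flag optical interference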
# * = called active by the depositor; i = inactive. Only part of the results is shown. The share of hits here may be higher or lower than overall.
SMILES,KCNQ2 inh,KCNQ2 inh baseline
C#CCNC(=O)C1=C[C@H](C(C)(C)C)C[C@H](OCCCCO)O1,i,0.13
Cc1ccccc1NC(=O)CCCN1C(=O)C2CC=CCC2C1=O (stereo not given),i,2.9
Cc1ccc(S(=O)(=O)NCc2c(Cl)cccc2Oc2ccccc2)cc1,i,0.02
COc1ccc(-c2csc(NC(=O)CCCc3cccs3)n2)cc1,i,-0.07
Cc1ccc(-n2ncc3c(N4CCN(c5ccccc5)CC4)ncnc32)c(C)c1,i,0.75
Cc1c(NC(=O)c2cn3ccccc3n2)cccc1-n1cnnn1,i,-1.5
O=C(CCN1C(=O)/C(=C/C=C/c2ccccc2)SC1=S)Nc1nccs1,i,-0.05
CC(C(=O)N1CCc2ccccc21)N1CCN(Cc2ccc(Cl)cc2)CC1 (stereo not given),i,-0.02
Cc1csc(SC(C)C(=O)Nc2ccc(Cl)cn2)n1 (stereo not given),i,-0.86
CCCNC(=O)CSc1nc(-c2cccs2)cc(C(F)(F)F)n1,i,0.24
CC(C)C(=O)Nc1cccc(C(=O)Nc2nccs2)c1,i,-0.99
C=CCNc1nc2ccccc2nc1NS(=O)(=O)c1ccc(OC)cc1,i,-0.01
COc1ccc(NC(=O)CC2C(=O)N(C)C(=S)N2CCc2ccccc2F)cc1 (stereo not given),i,-1.9
O=C(Nc1ccccc1)c1cc([N+](=O)[O-])ccc1NC1CCCCC1,i,0.12
COc1ccccc1CN1CCNC(=O)C1CC(=O)NC1CCCCCC1 (stereo not given),i,0.12

# Whole records from above.
# COc1ccccc1CN1CCNC(=O)C1CC(=O)NC1CCCCCC1 (stereo not given) as listed: KCNQ2 inh = i; KCNQ2 inh baseline = 0.12
# COc1ccc(NC(=O)CC2C(=O)N(C)C(=S)N2CCc2ccccc2F)cc1 (stereo not given) as listed: KCNQ2 inh = i; KCNQ2 inh baseline = -1.9

# Returning to the listing, starting five compounds before the break.
SMILES,KCNQ2 inh,KCNQ2 inh baseline
CC(C)C(=O)Nc1cccc(C(=O)Nc2nccs2)c1,i,-0.99
C=CCNc1nc2ccccc2nc1NS(=O)(=O)c1ccc(OC)cc1,i,-0.01
COc1ccc(NC(=O)CC2C(=O)N(C)C(=S)N2CCc2ccccc2F)cc1 (stereo not given),i,-1.9
O=C(Nc1ccccc1)c1cc([N+](=O)[O-])ccc1NC1CCCCC1,i,0.12
COc1ccccc1CN1CCNC(=O)C1CC(=O)NC1CCCCCC1 (stereo not given),i,0.12
CNC(=S)N(Cc1ccc(OC)cc1)Cc1cc2cc(C)ccc2[nH]c1=O,i,0.96
Cc1ccc2c(CC(=O)NCc3cccs3)coc2c1,i,-2.5
CCCCn1c(N)c(N(CCOC)C(=O)c2cc(C)oc2C)c(=O)[nH]c1=O,i,1.6
CCOc1ccc(NCc2cccn2-c2nnc(N3CCC(C(=O)NCCCN4C(C)CCCC4C)CC3)s2)cc1 (stereo not given),i,-0.93
O=C1N/C(=N/N=C/c2ccc(O)cc2)SC1Cc1ccccc1 (stereo not given),i,-0.29
CN(CCOC(=O)c1ccc2c(c1)OCCO2)Cc1ccccc1,i,1.1
Cc1onc(-c2c(Cl)cccc2Cl)c1C(=O)c1c[nH]c(C(=O)NC2CC2)c1,i,0.01
Cc1nc(SCC(=O)NCC2CCCO2)[nH]c(=O)c1C (stereo not given),i,-0.04
CC(C)CN(CC(C)C)C(=O)c1cc2c(=O)n3ccccc3nc2s1,i,-2.4
COc1cc(C)nc(OCCNC(=O)COc2ccc(Cl)cc2Cl)n1,i,-2.4
CC(C)CCNC(=S)NC1CCCC1,i,1.8
O=C(CSc1ncccc1-c1nc2ccccc2[nH]1)N1CCc2ccccc21,i,1.6
C=CCN1c2ccccc2[C@]23C[C@@H](C(=O)OC)N(C(=O)NCCC)C2=NC(C(=O)OC)=C(C(=O)OC)[C@H]13,i,2.4
CC(=O)c1ccc(N=Nc2ccc(C)cc2)cc1,i,0.39
COc1ccc(Nc2nnc(SC(C(=O)Nc3cc(C)ccc3C)c3ccccc3)s2)cc1 (stereo not given),i,2.2
Cc1cn([C@H]2C=C[C@@H](CO)O2)c(=O)[nH]c1=O,i,-1.2
O=[N+]([O-])c1ccc2oc(-c3ccccc3)nc2c1,i,0.7
CCOc1ccc(NC(=O)Nc2cccc(C(=O)O)c2)cc1,i,-0.26
c1ccc(CNc2ncnc3sc4c(c23)CCCC4)nc1,i,-1.5
O=C(NCCCCNC(=O)c1ccco1)c1ccco1,i,0.4
CC1(C)CC(c2nc(-c3ccc(Br)cc3)cs2)CCS1 (stereo not given),i,-3.1
CN(Cc1ccccc1)C(=O)CCNS(=O)(=O)c1ccc2c(c1)oc(=O)n2C,i,0.06
CCc1ccc(-c2nc(CSCC(=O)N3CCN(c4ncccn4)CC3)c(C)o2)cc1,i,-1
C=CCC(NCc1ccco1)c1ccc(OC)cc1 (stereo not given),i,-0.08
CCCCNc1nnc(CCn2nc(C)c(Br)c2C)s1,i,0.33
Cc1csc(NC(=O)CCn2c(=O)sc3ccccc32)n1,i,2.6
C=CCn1c(-c2cccn(Cc3ccc(Cl)cc3)c2=O)n[nH]c1=S,i,2.7
CCN(CC)c1ncnc2c1cnn2C,i,1.2
O=C(Nc1nccs1)c1ccc(COc2ccccc2)o1,i,0.77
CC(C(=O)NCCCN1CCOCC1)n1cccc1C(=O)c1ccccc1 (stereo not given),i,-1.2
O=C1CCCN1CCC(=O)N1CCCC(CO)(Cc2ccccc2)C1 (stereo not given),i,-0.13
NNC(=S)NCCc1ccccc1,i,-0.5
CCCOc1ccc(/C(O)=C2/C(=O)C(=O)N(CCCOC)C2c2cccnc2)cc1 (stereo not given),i,0.9
CCOc1cc(C(=O)N2CCC(CC3CC(c4ccccc4)=NO3)(C(=O)NCc3ccc(OC)cc3)CC2)cc(OCC)c1OCC (stereo not given),i,-2.5
NC(=O)c1c(NC(=O)C2CCCO2)sc2c1CCC2 (stereo not given),i,0.62
COc1ccc(NC(=O)CSc2nc3ccsc3c(=O)n2Cc2ccccn2)c(OC)c1,i,-0.41
O=C(O)CC(Cc1ccccc1)c1ccc2c(c1)OCO2 (stereo not given),i,-1.2
Cc1cccc(-c2c3c(=O)n(C)c(=O)n(C)c3cn2C2CCCCC2)c1,i,-0.85
CN(O)C(=O)Nc1ccc([N+](=O)[O-])cc1,i,7.8
Cc1cc(-c2ccco2)n(CC(=O)NCc2ccccc2)n1,i,-0.22
COc1ccc(N2CCN(C(=O)COC(=O)CCOc3ccccc3C)CC2)cc1,i,-0.19
O=C(Nc1ccccc1)Nc1ccc(O)c2ccccc12,i,2
CCOc1cccc(-c2cc(C(=O)N/N=C/c3ccc(OC)c(CN4CCOCC4)c3)c3ccccc3n2)c1,i,0.02
Cc1ccc(-n2ncc3c2CCCC3NC(=O)c2ccccc2N2CCOCC2)cc1C (stereo not given),i,1.1
CC(=O)N1CCC(Nc2ccc(C)cc2)CC1,i,0.34
COc1ccc2c(c1)CCc1c(C(=O)N3CCCCCC3)noc1-2,i,0.97
COc1ccc(C2C(C#N)=C(N)Oc3cccc(O)c32)cc1 (stereo not given),i,0.1
Cc1ccc(NC(=S)Nc2cccc3cnccc23)cc1C,i,-3
Cc1cc(Cl)ccc1OCCCC(=O)NO,i,1.3
N#C/C(=C/c1ccncc1)c1nc2ccccc2c(=O)[nH]1,i,-0.04
COc1ccc(F)c(CN2CCC(CO)(Cc3cccc(C(F)(F)F)c3)CC2)c1,i,-1.3
CCn1c(SCC(=O)N/N=C/c2c[nH]c3ccccc23)nnc1-c1ccc(Cl)cc1,i,-0.21
COc1ccc(N2CC(C(=O)Nc3cccc(C)n3)CC2=O)cc1 (stereo not given),i,-0.57
Cc1ccccc1SCC(=O)N1CCN(c2ccc(C(F)(F)F)cn2)CC1,i,1
Cc1ccc(NC(=O)Cn2c(=O)oc3ccccc32)c(C)c1,i,-0.03
COc1ccc([N+](=O)[O-])cc1NC(=O)C(C)N(C)Cc1ccc(Br)cc1 (stereo not given),i,0.39
COc1ccc(CC(=O)NC2CC(C)(C)NC(C)(C)C2)cc1OC,i,1.6
CCOC(=O)c1c(C2CC2)csc1NC(=O)CSCc1c(C)noc1C,i,-1.5
Oc1ccc(C(c2nnnn2C2CCCC2)N2CCc3ccccc3C2)cc1 (stereo not given),i,-0.13
Cn1c(=O)[nH]c(=O)c2c1nc(NCCc1ccccc1)n2CC(O)COc1ccccc1 (stereo not given),i,0.08

# Other entries
SMILES,KCNQ2 inh,KCNQ2 inh baseline
CCC(C)C(NC(=O)C1CCC(C)CC1)C(=O)Nc1ccc(OC)cc1 (stereo not given),i,-0.01
COc1ccc(Nc2nc(N3CCCC3)nc(N3CCOCC3)n2)cc1,i,4.1
COC(=O)C1=C(C)C(c2cccs2)NC(=O)N1C (stereo not given),i,-1.5
COC(=O)c1ccccc1NC(=O)c1ccc2c(c1)CC(C)O2 (stereo not given),i,0.29
Cc1c(CC(=O)O)c(=O)oc2c(C)c(OCc3c(F)cccc3Cl)ccc12,i,0.68
CCCCOc1ccc(C(=O)OCC(=O)N2CCOCC2)cc1,i,-0.93
COc1ccc(Nc2cc(C)c3ccc(O)cc3n2)cc1,i,0.38
Cc1ccc(S(=O)(=O)NCCN2CCOCC2)cc1C,i,1.7
CC1CCCCC1NC(=O)CSc1nnc(COc2ccc(Cl)cc2)o1 (stereo not given),i,-0.45
COC(=O)CCC/C=C1/SCC(NC(=O)c2ccccc2)C1=O (stereo not given),i,-1.4
CCOC(=O)c1cc(=O)n(Cc2ccccc2C)c2ccccc12,i,0.78
C=CCn1c(SCC(=O)c2[nH]c(C)c(C(=O)OCC)c2C)nc2scc(-c3ccc(OC)cc3)c2c1=O,i,0.61
CN(C)c1nc(Oc2ccc(=O)[nH]n2)nc(N2CCCCC2)n1,i,0.11
COC(=O)CC(NC(=O)c1ccc(C)cc1)c1ccccc1 (stereo not given),i,1.1
Cc1c(N2C(=O)c3ccc(Br)cc3C2=O)c(=O)n(-c2ccccc2)n1C,i,-0.63

# A different layout for part of the listing above:
# Each structure is followed by: KCNQ2 inh	KCNQ2 inh baseline
- C=CCn1c(SCC(=O)c2[nH]c(C)c(C(=O)OCC)c2C)nc2scc(-c3ccc(OC)cc3)c2c1=O
  i	0.61
- CCCCOc1ccc(C(=O)OCC(=O)N2CCOCC2)cc1
  i	-0.93
- CN(C)c1nc(Oc2ccc(=O)[nH]n2)nc(N2CCCCC2)n1
  i	0.11
- COC(=O)C1=C(C)C(c2cccs2)NC(=O)N1C (stereo not given)
  i	-1.5
- COC(=O)CCC/C=C1/SCC(NC(=O)c2ccccc2)C1=O (stereo not given)
  i	-1.4

# More entries
SMILES,KCNQ2 inh,KCNQ2 inh baseline
O=C(c1ccc(Cl)cc1)c1ccc(Oc2cc(NN3CCCCC3)c([N+](=O)[O-])cc2[N+](=O)[O-])cc1,i,-0.41
Cc1ccc(C)c(OCC(=O)O/N=C(\N)c2cccc([N+](=O)[O-])c2)c1,i,0.34
COc1ccc2cc(C3CC(c4ccco4)=NN3S(C)(=O)=O)c(Cl)nc2c1 (stereo not given),i,0.28
CCOC(=O)C(C)NC(=O)CCc1nnc2ccc(N3CCCCC3)nn12 (stereo not given),i,1.2
COCCCNc1nc2c(c(=O)n(Cc3cccc(Br)c3)c(=O)n2C)n1C,i,0.89
COc1ccc(C(=O)NC(C)CCn2cccn2)cc1OC1CCN(C(C)C)CC1 (stereo not given),i,1.1
CC(=O)c1cccc(NC(=O)N2CCCC2C(=O)Nc2ccc3c(c2)OCO3)c1 (stereo not given),i,-1.9
O=S1(=O)NC(c2ccccc2)CC(CC2CCCCC2)O1 (stereo not given),i,-1.8
CCOC(=O)C(=CNc1cccnc1Oc1ccc(C)c2c1CCC2)C(=O)OCC,i,0.1
Oc1ccc(Br)cc1-c1cc(-c2ccco2)[nH]n1,i,0.5
O=C(NC(=S)Nc1ccc(Cl)cc1)c1ccccc1,i,-0.37
COC(=O)NC1(C(F)(F)F)C(=O)NC(C)=C1C(=O)OC (stereo not given),i,-0.07
COc1cc(NC(=O)CC(C)S(=O)(=O)c2cc3c(cc2C)NC(=O)CO3)cc(OC)c1OC (stereo not given),i,-2.6
O=C(Cn1cnc2c(oc3nc4c(cc32)CCCC4)c1=O)Nc1ccccc1,i,0.44
FC(F)(F)c1cc(Oc2ccc(Cl)cc2)nc(-c2ccccn2)n1,i,0.32
CC(=O)n1cc(N(C(=O)CCl)c2ccccc2)c2ccccc21,i,-0.09
Cc1ccc(NS(=O)(=O)c2ccc(C(=O)NCC(c3ccco3)N(C)C)cc2)cc1 (stereo not given),i,0.03
CCN/C=C(\C#N)S(=O)(=O)c1ccc(Br)cc1,i,0.23
COC(=O)C1=C(CSc2nc3ccccc3s2)NC(=O)NC1c1ccc(F)cc1 (stereo not given),i,0.28
Cc1nnc(SCC(=O)NCc2ccc(F)cc2)[nH]c1=O,i,0.61
Cc1ccc(SCc2cn3c(C)csc3n2)cc1,-8.1*,-0.2*
Cc1cc(Cl)ccc1OCC(=O)NCCOc1nc(N2CCCCC2)nc(N2CCOCC2)n1,i,0.01
O=C(NCC1CCCO1)c1ccc(NC(=O)C2CC=CCC2C(=O)O)cc1 (stereo not given),i,-1.4
O=C(O)CCCC(=O)Nc1ccccc1SCCS(=O)(=O)c1ccc(Cl)cc1,i,-0.73
COc1ccc(-c2cc(-c3nnc(COC(=O)c4ccc(O)cc4)o3)c3ccccc3n2)cc1OC,i,-0.01
Cc1cc(-c2onc(C)c2C(=O)Nc2ccc(C(F)(F)F)cc2)no1,i,1.4
COc1ccc(Cl)cc1NC(=O)C(C)N1CCN(c2ccccn2)CC1 (stereo not given),i,1.4
CC(C)[C@H](NC(=O)c1ccc(Cl)c([N+](=O)[O-])c1)C(=O)O,i,-0.58
Cc1ccc2nc3c(c(C(=O)OCC(=O)NC4CCS(=O)(=O)C4)c2c1)CCCC3 (stereo not given),i,-2.2

# High-throughput results from PubChem.
